Cruzain noTriton – qHTS Assay for Promiscuous and Specific Inhibitors of Cruzain (without detergent); Potency, µM, for the others: max response, negative = inhibition, most hits filed as inhibitors; purified cruzain, Z-FR-AMC fluorescence, no detergent; Cruzipain (Trypanosoma cruzi), P25779; actives 2.3% (n = 200,000);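 note: plate controls were enzyme without inhibitor for no effect and buffer without enzyme for full effect; nearly all actives have a fitted effect of over 40% in size; top concentration of the series not given in the record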
Target sequence (P25779 123-467 limits assumed): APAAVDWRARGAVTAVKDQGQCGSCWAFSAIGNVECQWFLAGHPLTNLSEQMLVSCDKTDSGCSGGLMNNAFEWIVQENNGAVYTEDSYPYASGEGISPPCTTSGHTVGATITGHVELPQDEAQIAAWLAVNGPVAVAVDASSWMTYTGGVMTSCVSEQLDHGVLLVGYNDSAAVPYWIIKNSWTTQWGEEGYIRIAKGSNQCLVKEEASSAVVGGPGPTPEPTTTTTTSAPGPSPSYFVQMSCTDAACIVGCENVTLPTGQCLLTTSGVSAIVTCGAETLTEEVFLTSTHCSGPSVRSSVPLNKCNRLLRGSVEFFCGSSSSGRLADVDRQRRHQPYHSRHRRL
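Detergent-free condition (0.00005% Triton X-100) in acetate buffer pH 5.5 with DTT. 1.5 nM enzyme and compound were pre-mixed 15 min, then 2 uM Z-FR-AMC substrate added; reaction progress from fluorescence change between first and third reads (60 s).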
Cruzain Triton – qHTS Assay for Promiscuous and Specific Inhibitors of Cruzain (with detergent). Potency, µM, inactives show max response, negative = inhibition, most hits filed as inhibitors. Cruzipain (Trypanosoma cruzi), P25779. AID 1478, 2009. actives 0.43% (n = 200,000). purified cruzain, Z-FR-AMC fluorescence, 0.01% Triton;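 note: plate controls were neutral wells for no effect and buffer without enzyme for full effect; nearly all actives have a fitted effect of over 40% in size; top concentration of the series not given in the record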
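Cruzain (1.5 nM) preincubated 15 min at RT with compound in 100 mM sodium acetate pH 5.5, 5 mM DTT, 0.01% Triton X-100. Reaction started with 2 uM Z-FR-AMC; AMC fluorescence (ex 360/em 450 nm) change over 60 s gave rate.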
SARS PLP yeast – qHTS of Yeast-based Assay for SARS-CoV PLP; S. cerevisiae expressing SARS-CoV PLpro, growth rescue; control for the full effect not named in the record; Potency, µM (doses to about 32.9 µM), for inactives: at the top dose activity, positive = growth rescue; actives 0.19% (n = 330,000); active means well fitted rising curve with a large enough effect; inconclusive means small, poorly fitted or top-dose-only effect; inactive means no such curve, though single readings can be large or run the other way; note: 0% is about no effect; nearly all actives have a fitted effect of over 55% in size; growth read by luminescence after 48 h
Marburg entry inh – qHTS for inhibitors of binding or entry into cells for Marburg Virus; actives 1.8% (n = 300,000); AID 540276, 2011; Marburg virus pseudotyped entry inhibition, cell reporter; control for the full effect not named in the record; about a third of the inactives were read at about 46 µM; Potency, µM (series often up to 37.8 µM), without a hit: at the top dose activity change, negative = inhibition, actives largely listed as inhibitors; active = well fitted inhibition curve with a large enough effect; inconclusive = small, poorly fitted or top-dose-only effect, or effect the other way; inactive = flat fitted curve, though single readings scatter; tested in HEK293 cells; about a fifth of its hits are not listed in these tables; note: % is set by controls: 0 for no effect and ±100 for the full control effect; luciferase read-out
NS1 inh – qHTS Assay for Inhibitors of Influenza NS1 Protein Function; S. cerevisiae slowed by influenza A NS1, growth recovery by OD600; Potency, µM (titrated, usually from 46.1 µM), for the others: at the top dose activity, positive = more growth; actives 0.4% (n = 270,000); active means well fitted rising curve with a large enough effect; inconclusive means small, poorly fitted or top-dose-only effect; inactive means no such curve, though single readings can be large or run the other way; note: nearly all actives have a fitted effect of over 50% in size
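Recovery from NS1-induced slow growth read by OD600 in budding yeast switched to galactose assay medium (pH 6.0, -URA) at 1:100 dilution. Compound 23 nl per well; the matching strain lacking NS1 serves as control.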
2A StopGo – High Throughput Screening for Foot and Mouth Disease Virus Antivirals. human cells with a luciferase reporter of 2A StopGo recoding; control for the full effect not named in the record. Potency, µM (series often up to 57.9 µM), for the others: at the highest dose signal change, negative = less light. actives 1.2% (n = 410,000). AID 1159524, 2015; active = well fitted falling curve with a large enough effect; inconclusive = small, poorly fitted or top-dose-only effect; inactive = no such curve, though single readings can be large or run the other way; tested in HEK293T cells; note: % is set by controls: 0 for no effect and ±100 for the full control effect; nearly all actives have a fitted effect of over 45% in size; luciferase light after 4 h
LASV entry inh – qHTS for Inhibitors of binding or entry into cells for Lassa Virus; Lassa virus pseudotype entry inhibition, cell reporter; control for the full effect not named in the record; Potency, µM (top dose mostly 37.9 µM), for inactives: top-dose activity change, negative = inhibition, actives largely listed as inhibitors; actives 1.2% (n = 300,000); AID 540256, 2011; active means well fitted inhibition curve with a large enough effect; inconclusive means small, poorly fitted or top-dose-only effect, or effect the other way; inactive means flat fitted curve, though single readings scatter; tested in HEK293 cells; note: % is set by controls: 0 for no effect and ±100 for the full control effect; nearly all actives have a fitted effect of over 50% in size; luciferase read-out
RE007 growth inh – qHTS Assay for Inhibitors of the HIV-1 protein Vpr. S. pombe RE007 Vpr strain, BacTiter-Glo ATP luminescence, 24 h; control for the full effect not named in the record. Potency, µM (titrated, usually from 92.2 µM), for the others: at the top dose activity change, negative = less growth. actives 0.21% (n = 360,000); active = well fitted falling curve with a large enough effect; inconclusive = small, poorly fitted or top-dose-only effect; inactive = no such curve, though single readings can be large or run the other way;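 note: % is set by controls: 0 for no effect and ±100 for the full control effect; nearly all actives have a fitted effect of over 50% in size; the assay follows cell death caused by Vpr and the record does not say whether a fall means rescue or toxicity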
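Fission yeast RE007 carrying one integrated HIV-1 vpr copy, seeded at OD 0.01 in PMG+AL medium with 23 nL pinned compound. Grown 24 h at 30 degrees; viability read by BacTiter-Glo luminescence after 5 min.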
* = called active by the depositor; ? = inconclusive; · = not tested or not shown; & = joins results of further samples; ! = not active in a repeat; [ ] = dose if it differs, or a comment. Unless noted, calls come from the whole dose curve; as a rule, active = well fitted curve in the direction sought with a large enough effect; inconclusive = small, poorly fitted or top-dose-only effect, or another doubt; inactive = no such curve, though single readings can be large; an effect the other way counts as inactive or inconclusive. Potency is the fitted concentration of half-maximal effect.

molecule | Cruzain noTriton | Cruzain Triton | SARS PLP yeast | Marburg entry inh | NS1 inh | 2A StopGo | LASV entry inh | RE007 growth inh
COC(=O)c1ccccc1NC(=O)c1ccc2c(=O)n3c(nc2c1)CCCCC3 | ? | -10.6% | · | ? | · | -21.2% | -18.2%[46.1 µM] | ·
Cc1cccc(C2CC(=O)Nc3cc4c(cc32)OCO4)c1 (configuration not stated) | -5.5% | -5.0% | · | ? | · | ? | ? | ·
COc1ccc([N+](=O)[O-])cc1N1C(=O)c2cccnc2C1=O | · | · | 8.8% | · | -10.6% | -24.1% | · | 2.8%
CCOc1ccc(N(C)C(=O)C2CCN(S(=O)(=O)c3c(C)noc3/C=C/c3ccc(C)cc3)CC2)cc1 | -2.8% | 0.7% | · | · | · | -16.1% | 7.7%[46.1 µM] | ·
CCN1CCN(C(CNS(=O)(=O)c2ccccc2)c2ccccc2)CC1 (configuration not stated) | · | · | -0.9% | · | -0.6% | -11.6% | · | 11.5%
Cc1ccc(C(=O)Nc2ccccc2C(=O)NC(Cc2ccccc2)C(=O)O)cc1 (configuration not stated) | · | · | 1.7% | -15.2%[46.1 µM] | -1.0% | 40.9%[activator] | 7.7% | 18.5%
O=C(O)CCCC(=O)NCCc1cccc(Cl)c1 | 1.5% | 7.1% | -2.5% | ? | 15.4% | 1.8% | 0.2% | 3.7%
S=C1SCCN1Cc1ccccc1 | · | · | · | 0.4% | · | 0.0% | 4.9%[46.1 µM] | 10.5%
Cc1ccc(NC(=O)N2C(=O)C3(OCCO3)c3ccccc32)cc1 | -8.0% | -0.5% | -7.0% | ? | -5.1% | 39.5%[activator] | -6.8% | 9.0%
O=C(O)COc1ccc(=O)n(-c2ccccc2)n1 | -4.7% | -1.6% | -0.4% | ? | 2.1% | -11.6% | 13.1% | 8.7%
Cc1ccc(CN2c3ccccc3-c3nc(SCC(=O)NCc4ccccc4)ncc3S2(=O)=O)cc1 | -22.3% | 1.8% | · | · | · | ? | ? | ·
CCN(CC)CCn1c(=N)n(CCOc2ccccc2Cl)c2ccccc21 | 5.7% | -5.7% | · | ? | · | ? | ? | ·
CN(C)c1ccc(C=NCC2COc3ccccc3O2)cc1 (configuration not stated) | · | · | 0.1% | · | -7.1% | -10.1% | · | 10.8%
O=S(=O)(c1ccc(Br)cc1)c1nc(-c2ccccc2)oc1N1CCOCC1 | · | · | -0.7% | ? | 3.9% | -4.1% | ? | -1.7%
Cc1ccc(CSc2nc3ccc(NC(=O)COc4ccccc4)cc3s2)cc1 | -0.8% | -2.0% | · | -14.6%[46.1 µM] | · | -28.7% | -0.5%[46.1 µM] | ·
COc1ccc(NC(=O)C(CC(C)C)NC(=O)C2CCCCC2)c(OC)c1 (configuration not stated) | -10.6% | -3.6% | 0.5% | -8.5%&-8.5%[46.1 µM] | · | 316µM*! | -9.2%[46.1 µM] | 7.7%
CCOC(=O)N1CCN(C(=O)C2CCCN(S(=O)(=O)c3ccc(C)cc3)C2)CC1 (configuration not stated) | 4.1% | -8.0% | 24.7% | -5.9% | -2.5% | -20.7% | -28.1% | -6.7%
Cc1cccc2sc(N(CCCN3CCOCC3)C(=O)CS(=O)(=O)c3ccc(F)cc3)nc12 | · | · | 0.3% | -4.9%[46.1 µM] | · | 0.5% | 17.5% | -14.8%
CC(C)(C)C1CCC(C(=O)OCC(=O)Nc2ccc3[nH]c(=O)[nH]c3c2)CC1 (configuration not stated) | · | · | -0.1% | ? | 5.0% | -21.3% | 18.2%[46.1 µM] | 13.4%
COc1ccccc1NC(=O)Nc1ccc(Cl)c(S(=O)(=O)Nc2ccccc2OC)c1 | -12.9% | -3.2% | 6.2% | ? | -2.4% | 3.9% | ? | 6.3%
CC1=NN(c2ccccc2)C(=O)C1(C)[N+](=O)[O-] (configuration not stated) | 5.8% | -1.5% | 0.7% | -2.5% | 10.9% | -15.2% | 2.7% | -11.8%
COc1ccc(S(=O)(=O)N2CCN(C(=O)COc3ccc(C)c(C)c3)CC2)cc1OC | · | · | 0.5% | -28.2% | 0.5% | -23.6% | 1.1% | -24.3%
O=C(NCCSc1ncc(-c2ccccc2)[nH]1)c1ccco1 | · | · | 0.2% | 23.8% | · | 17.9% | -1.1% | 3.7%
O=C(COC(=O)c1ccco1)Nc1nc2ccccc2s1 | -0.3% | -5.7% | -6.8% | ? | -35.5% | 42.5%[activator] | 9.3% | -7.6%
COc1ccc(S(=O)(=O)N2CCC(c3nnc(-c4ccccc4C)o3)CC2)c(OC)c1 | ? | -10.1% | · | -4.7%[46.1 µM] | · | -5.6% | -13.9%[46.1 µM] | ·
CC(C(=O)N1CCCc2c1c(=O)oc1ccc(O)cc21)N1CCc2ccccc2C1 (configuration not stated) | -0.5% | -3.8% | 3.4% | ? | -5.2% | -3.5% | 6.6% | 7.6%
CSc1ncc(-c2ccccc2)cn1 | · | · | -6.2% | 0.4%[46.1 µM] | · | 16.6% | 15.8%[46.1 µM] | ?
O=C1CCOc2cc(OCc3ccccc3)ccc21 | -0.4% | -3.0% | -6.6% | ? | -3.9% | -40.7% | ? | -20.7%
O=C(N/N=C/c1ccsc1)c1c[nH]c2ccccc12 | · | · | -4.7% | · | -0.5% | 0.0% | · | -3.4%
Cn1cccc1-c1cc(C(=O)N/N=C/c2ccc(Cl)cc2)[nH]n1 | · | · | -16.1% | ? | 5.2% | -16.1% | ? | -12.8%
COc1ccc(-c2noc(N3CCC(C(=O)N4CCN(c5cccc(OC)c5)CC4)CC3)n2)cc1 | 0.9% | 2.1% | · | · | · | ? | -11.3%[46.1 µM] | ·
Cc1cccnc1NC(=O)c1ccc(Cl)c(S(=O)(=O)N2CCCCCC2)c1 | · | · | 11.5% | -3.6% | -29.1% | -2.5% | ? | 80.2%
Cc1cc(OCCNCCO)cc(C)c1Cl | 7.7% | 2.3% | 2.5% | ? | -15.8% | -2.1% | -23.3% | 1.3%
O=C(COc1nsnc1N1CCOCC1)Nc1ccccc1Cl | · | · | -11.3% | · | -21.3% | 2.0% | · | -13.4%
CCOc1ccc(-n2nc3c(SCCN4CCCC4)nnc(C)c3c2C)cc1 | 2.0% | -15.4% | -3.5% | ? | 18.5% | ? | 6.9% | 2.1%
CCC(C)c1ccc(NC(=O)c2cccnc2)cc1 (configuration not stated) | -5.0% | -2.7% | -13.3% | 15.4% | -2.1% | 0.0% | ? | 0.5%
O=C(COC(=O)CCc1ccc(S(=O)(=O)N2CCOCC2)cc1)Nc1ncc(C(F)(F)F)cc1Cl | 28.6% | -0.2% | -4.9% | ? | 1.0% | 10.4% | 26.4% | 4.5%
CCC(C)c1c(O)nc(SCc2ccccc2)[nH]c1=O (configuration not stated) | 2.9% | 1.5% | · | 1.4% | -12.7% | -11.5% | -0.3% | -5.3%
CC(=O)Nc1cccc(NC(=O)c2csc(C)c2)c1 | · | · | -2.8% | · | 14.8% | 24.5% | · | -7.4%
CSCc1ccc(C(=O)NCCSc2ccc(Br)cc2)cc1 | · | · | 5.3% | ? | 9.8% | 7.1% | 17.5% | 11.3%
Cn1c(Cn2nnc3ccccc32)nnc1SCC(=O)Nc1nccs1 | 2.0% | -1.9% | 12.8% | ? | -2.4% | -22.9% | -2.3% | 3.4%
CCc1ccc(-c2nc(CS(=O)CC(=O)NCCN3CCCCCC3)c(C)o2)cc1 (configuration not stated) | · | · | -0.3% | ? | 10.6% | 26.2% | ? | 7.4%
O=C(Nc1nnc(CC2=CCCCC2)s1)c1cccs1 | -8.6% | -2.3% | -5.5% | 18.9%[46.1 µM] | -26.9% | 67.6%[activator] | 26.7% | -11.6%
CCC(NC(C)C)C(O)c1ccc(O)c(O)c1 (configuration not stated) | -2.5%&7.2% | 3.5%&2.6% | -1.2% | -1.3%&-22.7%&-22.7%&-4.0%&-22.7%&-22.7% | 0.4%&8.7% | -12.6% | ? | 7.5%[18.4 µM]
Cc1ccc2nc(C)c3c(c2c1)OC(C(C)(Cl)Br)C3 (configuration not stated) | · | · | -1.8% | -22.8%[46.1 µM] | -43.8% | ? | ? | -28.9%
COc1cc(S(=O)(=O)N2CCCCC2)ccc1NC(=O)Cc1ccccc1 | -1.1% | -1.4% | -9.1% | ? | 7.2% | 9.4% | -26.5% | -21.5%
CC1=C(C(=O)OC(C)C)C(C2CC=CCC2)NC(=O)N1 (configuration not stated) | 17.4% | 13.0% | -6.3% | 1.1% | 3.9% | · | -1.4% | 0.0%
Cc1ccc(C(C)C)c(OCC(=O)NCC(c2cccs2)N2CCOCC2)c1 (configuration not stated) | · | · | -0.9% | ? | · | ? | ? | -10.5%
O=C(Nc1ccccc1N1CCCC1)c1ccccc1Cl | · | · | -1.7% | 1.9%[46.1 µM] | -13.3% | 4.7% | -14.0%[46.1 µM] | -10.4%
Cn1cnnc1SCc1ccc(C#N)cc1Cl | 1.1% | 3.9% | 2.8% | ? | 5.6% | · | 14.4% | -1.9%
COc1cccc(CNC(=O)c2oc3c(c2C)-c2nn(Cc4cccc(Cl)c4)cc2CC3)c1OC | -10.0% | -3.7% | · | · | · | -18.3% | 1.9%[46.1 µM] | ·
CC1CCN(C(=O)C2c3ccccc3C(=O)N3CCc4ccccc4C23)CC1 (configuration not stated) | -2.3% | -2.0% | -1.1% | -12.1% | -3.5% | 41.1% | -12.4% | -7.9%
CCN(C(=O)COC(=O)c1sccc1C)c1c(N)n(Cc2ccccc2)c(=O)[nH]c1=O | · | · | 0.3% | 15.8% | · | -25.2% | -4.1% | 1.4%
CCOc1cc(/C=C2\SC(=S)N(NS(=O)(=O)c3ccccc3)C2=O)ccc1O | · | · | -1.6% | · | 5.3% | 3.4% | · | -7.5%
O=C(c1cccs1)N1CCN(CCCc2ccccc2)CC1 | 8.8% | 10.1% | 1.3% | -0.1% | 0.3% | -0.8% | 0.6% | -0.8%

Bioassay records as filed in PubChem BioAssay.
